Bfl-1 A1 inh: inhibitors of the anti-apoptotic protein A1, read as caspase activation; caspase activation, % (concentration not given with the values); AID 2462; 330,000 tested, 0.066% active; MEF A1-2A-BIM cells, Caspase-Glo 3/7 luminescence, 3 h; percent of clofoctol response, vehicle zero;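 active = over half of replicate activation scores above 10%, or exactly half above 10 with the replicate mean above 10; inconclusive = replicate mean below 10 yet half the replicates above 10; inactive = over half of replicates below 10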;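 also: wells of about 30 µL received 50 nL stock; many hits fall short of the cut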
Ecoli rRNA inh: inhibits bacterial ribosomal RNA function over humanized ribosomes | E. coli WT GFP vs humanized-ribosome RFP mutants, fluorescence, 24 h; stronger effect = lower value; DMSO median 0, no signal -100 | 350,000 tested, 1.6% active | GFP signal change (wild-type ribosome), % (concentration not given with the values);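 active = significant combined selectivity score with lowered wild-type GFP, culture density cut under 30%, mutant RFP and density less affected; inactive = any of these conditions unmet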; also: one replicate is shown; some compounds called inactive have numbers as strong as hits
T cruzi inh: blocks replication of Trypanosoma cruzi; inhibition, % (test concentration not listed); AID 1885; T. cruzi beta-gal in NIH3T3, luminescence, 90 h; 300,000 tested, 1.4% active;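 active = mean inhibition across valid replicates above about 55%, limit read from the data; inconclusive = mean below that limit but half or more replicates reach it; inactive = mean below it, under half of replicates reach it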;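 also: signal also drops with host cell toxicity which is not excluded here; 0% = plate median of DMSO wells and 100% = zero luminescence signal; higher percent means less beta-gal luminescence so fewer parasites; stock transfer was 50 nL into about 50 µL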
B2AR ag: human beta-2 adrenergic receptor agonism by FAP; response, % (test concentration not listed); Am2.2-beta2AR cells, FAP receptor internalization, flow cytometry; reference of the scale not given here; AID 504454; 340,000 tested, 0.43% active;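 active = response above a set limit, near 3 SD of response in nonfluorescent compounds, cut at about 42% in these data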;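 also: stock transfer was 100 nL into about 11 µL; a reference agonist was the positive control; negative values mostly stem from fluorescent compounds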
ALR inh: blocks human ALR sulfhydryl oxidase activity; P55789; purified ALR, DTT oxidation, H2O2 HRP-luminol luminescence; inhibition, % (no concentration beside the values); 290,000 tested, 3.8% active; AID 485317;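 active = mean and each replicate at 75% or more; inconclusive = only one of the two met; inactive = neither met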;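 also: stock transfer was 7.5 nL into about 7.5 µL; 0% = neutral wells and 100% = wells with inactivated enzyme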
Beta apoptosis: beta cell apoptosis inhibition. AID 435005. protection from apoptosis, % (concentration not given with the values). 300,000 tested, 0.8% active. INS-1E cytokine-induced death, ATP luminescence, 48 h; percent of positive-control rescue, neutral wells zero;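 active = all replicates at 75% or more, or half of them and the mean; inconclusive = half reach 75% but not the mean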;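 also: 0% = cytokine-treated negative control wells and 100% = positive control rescue; higher means more ATP so stronger rescue from cytokine killing; wells of about 40 µL received 100 nL stock; the first replicate is given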
Calb FLC: C. albicans growth modulation with fluconazole; C. albicans CaCi-2 (fluconazole-resistant clinical isolate) + fluconazole, Alamar Blue growth, 48 h; growth inhibition, % (no concentration beside the values); 300,000 tested, 0.57% active;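 active = most replicates above 75%; inconclusive = exactly half above 75%; inactive = most below 75%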;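 also: all wells also contain fluconazole at 8 µg/ml as a sub-toxic cotreatment; 0% = median of DMSO wells and 100% = median of geldanamycin control wells; wells of about 8 µL received 7.5 nL stock; the first replicate is given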
LANA-H2A inh: blocks KSHV LANA binding to histone H2A/H2B. Q9QR71. cell-free LANA-H2A/H2B peptide, fluorescence polarization. inhibition, % (no concentration beside the values). 320,000 tested, 0.6% active; in the data active = inhibition mostly above about 10%, no sharp cut-off; inactive = mostly below about 6.7%;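 also: stock transfer was 7.5 nL into about 10 µL; 0% = median of vehicle wells and 100% = median of positive control wells; one replicate is shown; the record names a cut of 25% in any replicate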
Target sequence (Q9QR71 whole entry, looked up): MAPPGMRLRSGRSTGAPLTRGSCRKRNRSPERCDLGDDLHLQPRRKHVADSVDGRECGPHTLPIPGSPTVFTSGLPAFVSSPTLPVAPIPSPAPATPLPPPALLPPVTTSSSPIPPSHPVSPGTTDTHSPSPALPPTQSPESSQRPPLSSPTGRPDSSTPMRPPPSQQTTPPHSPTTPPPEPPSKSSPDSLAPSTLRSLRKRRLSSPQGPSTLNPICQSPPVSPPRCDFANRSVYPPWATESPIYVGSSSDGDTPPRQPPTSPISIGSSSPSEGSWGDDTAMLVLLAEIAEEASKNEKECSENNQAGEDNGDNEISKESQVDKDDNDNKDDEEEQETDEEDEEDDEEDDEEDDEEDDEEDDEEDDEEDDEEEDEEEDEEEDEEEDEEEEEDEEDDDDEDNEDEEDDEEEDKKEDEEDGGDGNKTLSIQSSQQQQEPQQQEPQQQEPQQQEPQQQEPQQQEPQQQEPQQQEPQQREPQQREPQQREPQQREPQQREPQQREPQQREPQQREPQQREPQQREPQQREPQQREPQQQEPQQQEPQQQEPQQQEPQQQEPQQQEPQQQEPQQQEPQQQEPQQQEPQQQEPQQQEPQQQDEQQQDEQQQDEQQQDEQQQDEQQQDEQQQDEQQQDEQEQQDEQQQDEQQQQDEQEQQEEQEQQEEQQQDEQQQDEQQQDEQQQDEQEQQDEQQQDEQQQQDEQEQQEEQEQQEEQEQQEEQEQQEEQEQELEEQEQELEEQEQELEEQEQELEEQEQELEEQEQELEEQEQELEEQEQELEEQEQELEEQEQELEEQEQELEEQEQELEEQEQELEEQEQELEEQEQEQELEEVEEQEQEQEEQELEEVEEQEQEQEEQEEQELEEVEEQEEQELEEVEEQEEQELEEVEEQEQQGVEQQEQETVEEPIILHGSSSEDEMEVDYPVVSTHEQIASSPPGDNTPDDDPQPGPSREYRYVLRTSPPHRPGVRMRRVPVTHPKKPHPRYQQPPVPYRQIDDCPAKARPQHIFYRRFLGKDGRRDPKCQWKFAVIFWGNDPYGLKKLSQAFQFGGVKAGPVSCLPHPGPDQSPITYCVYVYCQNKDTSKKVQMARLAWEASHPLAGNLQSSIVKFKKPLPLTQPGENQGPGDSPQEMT
Ecoli rRNA inh OD600: second read-out of Ecoli rRNA inh, no call of its own (marks repeat the call); OD600 change, %; measured here: OD600 growth;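 optical density of the mix in the first replicate; 0 = DMSO median and -100 = no signal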
Ecoli rRNA inh RFP: further read-out of Ecoli rRNA inh, marked with its call; RFP signal change, %; measured here: RFP humanized mutant strains;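 first replicate; 0 = DMSO median and -100 = no signal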
The depositor's hits bear a star; ? = inconclusive; · = not tested or not shown.

SMILES	Bfl-1 A1 inh	Ecoli rRNA inh	Ecoli rRNA inh OD600	Ecoli rRNA inh RFP	T cruzi inh	B2AR ag	ALR inh	Beta apoptosis	Calb FLC	LANA-H2A inh
CCCCCC(=O)Nc1cccc(C2=NOC3(C2)C[C@H](C(N)=O)N(C(=O)CCCCC)C3)c1 (stereo partly drawn)	0.3	-2.2	0.2	-3.2	45.9	-5.7	·	1.4	-10.3	6.1
COc1ccc(N2C(=O)C3CCCN3C2c2cccc(C)c2)cc1 (stereo not drawn)	1.1	5.1	13.6	-2.7	-6.2	6.8	·	-1.9	5.2	5.9
Cn1c(CNC(=O)c2ccc(Cl)cc2)nnc1SCC(=O)N1CCOCC1	1.5	15.0	6.8	0.1	-6.2	0.4	-0.4	0.3	-9.0	1.2
CCc1nn(-c2ccccc2)c2c1-c1cc(OC)c(OC)cc1C1(N2)C(=O)Nc2ccccc21 (stereo not drawn)	0.1	·	·	·	1.3	-10.2	-0.8	7.2	10.8	-0.2
CCOC(=O)C(NS(=O)(=O)c1ccc(C)cc1)(C(F)(F)F)P(=O)(OCC(C)C)OCC(C)C (stereo not drawn)	0.3	8.5	15.4	1.8	-13.5	7.5	7.0	-0.8	-5.8	-0.9
COC(=O)c1ccc(/C=N\NC(=O)c2ccc(C)cc2Cl)cc1	0.3	·	·	·	4.8	-2.9	3.2	-3.3	-4.1	-5.8
Cc1cc2nc3c(=O)n(Cc4ccccc4)c(=O)[nH]c3nc2cc1N	0.3	53.0	-1.5	1.0	2.2	-159.8	·	4.8	11.3	27.2*
COc1ccc(CCNC(=O)COc2ccc(S(=O)(=O)NC3CCCCC3)cc2Cl)cc1OC	-0.1	·	·	·	11.3	-7.3	-4.4	-13.5	0.3	0.5
COc1ccc(C2c3ccc(O)cc3Oc3ncn4nc(-c5ccco5)nc4c32)cc1OC (stereo not drawn)	-0.4	2.1	4.7	1.9	0.1	-6.2	12.4	-5.8	7.2	7.8
O=C(NCCN1CCOCC1)Nc1ccc(F)cc1	-1.5	8.4	5.8	-4.5	-9.9	-1.2	-4.2	-3.3	-24.0	1.2
CCOCCCNS(=O)(=O)c1cc(Br)cc2c1N(C(=O)C1CC1)CC2	0.9	·	·	·	5.7	-6.9	·	-4.0	0.4	0.9
COc1ccccc1C1C(C#N)=C(N)N(c2cccnc2)C2=C1C(=O)CC(C)(C)C2 (stereo not drawn)	-0.7	·	·	·	4.0	12.4	15.9	3.7	-28.8	5.1
CC(=O)Nc1ccc(CN2CCCCCC2)cc1	?	8.4	8.0	0.9	0.2	2.4	-1.1	-2.9	-2.1	-0.8
Cc1ccc(O/C=C2\OC(=O)c3ccccc32)cc1	0.7	·	·	·	-8.4	-1.3	·	-5.6	-7.7	1.1
CCOC(=O)C1CCCN(C(=O)c2cccc(S(=O)(=O)N(Cc3ccccc3)c3ccccc3OC)c2)C1 (stereo not drawn)	0.0	-5.0	-14.4	19.3	55.7*	·	-6.5	0.5	2.4	3.6
O=C(Cn1nc(Br)nc1Br)c1ccccc1	0.1	10.1	18.2	0.3	-7.0	-5.7	1.4	0.6	2.0	-1.0
COc1ccc(-c2ccc(Nc3ccc(S(=O)(=O)N4CCCC4)cc3)nn2)cc1OC	-0.9	·	·	·	14.2	15.6	·	·	-7.6	5.3
CCc1ccc(NC(=O)CCS(=O)(=O)c2cccc3nsnc23)cc1	1.2	·	·	·	-5.8	0.0	-8.2	-2.8	-5.1	-1.1
COc1cccc2c(N/N=C/c3ccccc3)cc(C)nc12	1.0	-17.4	-4.0	-3.7	1.1	-4.4	87.1*	·	1.1	2.2
CC(NC(=S)NCc1ccccc1)C12CC3CC(CC(C3)C1)C2 (stereo not drawn)	0.0	5.2	6.4	0.7	-26.1	-0.2	-10.0	15.8	-8.6	4.1
Cc1ccc(NS(=O)(=O)c2ccc(N/N=C/c3ccccc3OCC(=O)O)c([N+](=O)[O-])c2)c(C)c1	0.2	6.1	-2.1	-4.2	-17.3	17.0	23.0	-10.6	-7.1	-1.6
Cn1c(C(=O)N2CCN(c3ccccn3)CC2)cc2ccccc21	0.1	-10.4	-25.1	7.5	-4.9	-5.5	-24.0	2.3	14.7	5.8
COC(=O)CN=Cc1c(C)[nH]n(-c2ccccc2)c1=O	-0.2	10.2	8.2	0.8	-16.5	1.5	1.6	0.6	-16.6	-2.1
COc1ccc(C2C(C(=O)Nc3cccnc3)=C(C)Nc3nc(-c4cccs4)nn32)cc1 (stereo not drawn)	1.5	·	·	·	-3.2	-9.3	12.4	·	40.0	-2.6
COc1cccc(C(=O)N2CCCC(CCC(=O)NCc3ccc(F)c(F)c3)C2)c1 (stereo not drawn)	-0.3	-8.5	-13.6	0.5	1.2	-4.0	-52.8	-5.5	-1.7	-3.5
Cc1cc(N2CCCCC2C)nc(-c2ccccc2O)n1 (stereo not drawn)	0.4	2.9	3.2	-6.5	8.4	3.0	-1.4	4.1	-1.1	-0.1
COCCNC(=O)CN1CCN(S(=O)(=O)c2ccc3c(c2)CCCC3)CC1	0.1	-0.9	-6.8	-2.8	·	-8.1	-1.1	-1.2	·	4.9
Cc1cc(C)cc(NC(=O)COC(=O)CCCNC(=O)c2ccc(Cl)cc2)c1	-0.2	·	·	·	-7.0	-10.7	·	-7.9	7.6	-2.5
CN(CCc1ccccn1)C(=O)Nc1cccc(Cl)c1	-0.3	-2.9	-8.0	-0.2	0.4	7.4	-11.9	2.7	-5.3	-11.5
COc1ccc(/C(O)=C/C(=O)C(=O)NNC(=O)C(O)(c2ccccc2)c2ccccc2)cc1	2.4	·	·	·	1.8	1.5	8.0	-3.8	2.6	1.4
Cc1cccc(CN2C(=O)CCSc3ccc(Cl)cc32)c1	0.0	·	·	·	2.3	4.2	-3.5	0.1	-5.4	-5.9
CCOC(=O)c1cc(C)sc1N1C(=O)C2C3C=CC(C3)C2C1=O (stereo not drawn)	-1.0	·	·	·	-15.3	1.9	3.1	-5.6	-6.1	1.0
O=C(CCc1ccccc1)NNC(=O)c1ccc(NC(=O)c2ccccc2)cc1	-0.3	·	·	·	2.9	7.0	-0.6	-3.1	-17.3	-5.3
Cc1ccc(C2=NC3(CCCCC3)NC2=S)cc1	0.9	9.4	26.5	6.0	1.0	10.0	-2.7	1.2	18.4	2.4
CN1OC(COC(=O)c2ccccc2)CC1c1ccccc1 (stereo not drawn)	-0.5	·	·	·	-11.2	-4.7	-1.3	-2.2	-15.5	-2.7
O=C1N=C(N2CCCC2)S/C1=C\c1cccc(Br)c1	1.7	·	·	·	11.9	-11.4	8.8	-3.6	48.8	0.6
O=C(NCC(=O)N1CCCC(C(F)(F)F)C1)c1ccc2ccccc2c1 (stereo not drawn)	-0.1	1.5	0.7	-0.9	-0.2	-8.8	-0.3	4.8	1.0	-5.6
CN1CCc2nc(SCC(=O)Nc3cccc(F)c3)c(C#N)c(-c3cccs3)c2C1	-0.8	·	·	·	54.5*	6.8	·	-13.7	-5.2	-0.7
O=C(Nc1ccc(Oc2cccnc2)cc1)c1ccccc1Cl	-1.1	-7.5	-12.7	-3.3	-23.1	-21.3	2.5	-8.2	-4.5	-4.5
COc1ccccc1NS(=O)(=O)c1ccc(O)cc1	0.6	·	·	·	-7.1	-3.9	-0.5	-4.3	0.3	-4.2
Cc1ccc(-c2nn3nnnc3c3ccccc23)cc1	-1.0	·	·	·	-8.0	-4.3	-17.8	6.9	4.6	3.8
CN(C)c1nc(OCCNC(=O)COc2ccc(Cl)cc2Cl)nc(N(C)C)n1	0.2	·	·	·	17.1	5.5	-9.5	4.2	10.7	-1.2
CCCCCCSc1nnc(-c2cnn(-c3ccccc3)c2-n2cccc2)n1C	-0.1	·	·	·	23.7	-5.8	-4.3	14.6	-2.7	0.2
O=C(Cc1ccccc1)NCCSC1CCCCC1	-0.3	3.8	-9.7	0.5	-2.6	12.2	-8.9	4.2	-30.7	-3.6
CCN(c1cccc(C)c1)S(=O)(=O)c1csc(C(N)=O)c1	0.7	0.0	-1.7	4.9	0.7	4.0	0.0	-2.1	1.1	-0.5
COc1ccc(NC(=O)C2CC(=O)N(CCc3ccc(Cl)cc3)C2)cc1 (stereo not drawn)	-0.1	2.1	4.7	2.2	-7.8	3.2	-3.0	7.2	6.6	-0.8
CCCNC(=O)C1(O)c2cc(Br)ccc2NC(=O)N1c1ccc(Cl)cc1 (stereo not drawn)	-0.8	-1.1	1.1	2.4	2.1	4.8	-18.1	-2.0	0.4	-4.4
COCCCNC(=O)CC(C)c1ccccc1 (stereo not drawn)	-0.4	·	·	·	8.4	-2.4	0.6	-1.9	-1.1	5.5
Oc1ccc(CNCC2COc3ccccc3O2)cc1 (stereo not drawn)	-0.4	·	·	·	-9.3	11.6	11.6	-7.4	0.8	-1.2
CCCn1c(Nc2ccccc2)nc2ccccc21	0.2	·	·	·	-14.0	-21.3	6.5	1.4	-3.7	-2.8
(further entries)
SMILES	Bfl-1 A1 inh	Ecoli rRNA inh	Ecoli rRNA inh OD600	Ecoli rRNA inh RFP	T cruzi inh	B2AR ag	ALR inh	Beta apoptosis	Calb FLC	LANA-H2A inh
COc1ccc(-c2ccc(=O)n(CC(=O)Nc3ccc4c(c3)OCCO4)n2)cc1	0.8	17.2	18.2	-2.5	-5.1	9.2	-2.4	-8.4	-2.3	0.0
CCOc1nc2cnccc2n(CC(=O)Nc2cccc(C)c2C)c1=O	0.8	6.6	3.2	-2.5	-18.8	-0.5	0.8	3.6	1.7	-8.5
CC(=O)Nc1sc(C)c(C)c1C(=O)OCC(=O)N(CC(C)C)C1CCS(=O)(=O)C1 (stereo not drawn)	1.4	·	·	·	-2.9	2.9	·	-9.7	-3.4	1.8
COC(=O)c1cc(C(=O)Nc2cc(C)ccn2)cc([N+](=O)[O-])c1	0.5	·	·	·	-0.7	-3.0	-35.8	5.0	2.2	-1.8
OC(COc1c(F)cc(Br)cc1F)CN1CCOCC1 (stereo not drawn)	0.7	6.8	6.8	-1.9	-4.8	-6.2	·	-0.8	-14.7	-1.2
O=C(CC(=O)N/N=C\c1cccc(Cl)c1Cl)NCc1ccccc1	0.0	5.6	12.3	3.9	-18.8	2.6	2.0	4.6	-4.9	5.7
CC(C)OP(=O)(OC(C)C)C(Nc1ccc(C(=O)O)cc1)c1ccccc1 (stereo not drawn)	0.2	14.5	12.7	3.7	1.8	-8.3	0.3	-10.8	10.2	0.2
CCCC(=O)N1CCN(c2ccc([N+](=O)[O-])c(NC(C)c3ccccc3)c2)CC1 (stereo not drawn)	-0.3	·	·	·	19.7	-12.8	-21.3	24.2	49.2	-8.1
COc1cccc(-c2cc(C(=O)N3CCc4ccccc4C3)no2)c1	-1.6	·	·	·	6.5	8.2	-5.6	-17.2	-17.0	-1.0

This is a subset. The share of hits here may be higher or lower than overall.
